# Sfp inh: blocks B. subtilis Sfp PPTase activity; Q9F4F7; Biochemical Sfp PPTase activity, qHTS; Potency, µM, for the others: max response, negative = inhibition, actives largely listed as inhibitors; hit rate 3.5% among 310,000; active = well fitted inhibition curve with a large enough effect; inconclusive = small, poorly fitted or top-dose-only effect, or another doubt; inactive = no such curve, though single readings can be large or run the other way;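 note: the enzyme is Sfp with the accession as filed and its product quenches rhodamine fluorescence; potency is the fitted concentration of half-maximal effect; 0% = enzyme reaction without inhibitor and -100% = no enzyme wells; top concentration of the series not given in the record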
#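 With Hepes-Na pH 7.6 buffer containing 10 mM MgCl2, Sfp (15 nM) modified BHQ-2-YbbR (12.5 uM) using rhodamine-CoA (5 uM). Two reads 30 minutes apart at 525/598 nm yielded each well's rate.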
# Six1-Eya2 blk: blocks human Six1 binding to Eya2 | activity change, % (concentration not given with the values) | hit rate 0.56% among 360,000 | AID 651725 | AlphaScreen GST-Six1/His-Eya2 binding, biochemical; stronger effect = lower value; control for the full effect not named in the record; in the data active = activity change below about -65%; inconclusive = about -30% to -65%; inactive = above about -30%; note: % is set by controls: 0 for no effect and ±100 for the full control effect
#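 Six1/Eya2 binding was read as AlphaScreen signal after compounds were pinned into GST-Six1 plus His-tagged Eya2 (5X stock 250/500 nM) in pH 8.0 Tris/NaCl/TCEP buffer, beads added, then incubated 1 h, 37 C, dark.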
# PINK1 expr mod: PINK1 expression modulation | hit rate 0.2% among 410,000 | Potency, µM (doses to about 76.6 µM), without a hit: at the highest dose activation (PINK1 increase), hits mostly activators | AID 624263 | PINK1 immunofluorescence, high-content cytometry, 24 h; active = well fitted activation curve with a large enough effect; inconclusive = small, poorly fitted or top-dose-only effect; inactive = flat fitted curve, though single readings scatter; cell line not stated here;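 note: potency is the fitted concentration of half-maximal effect; % of control where 0% means no effect; nearly all actives have a fitted effect of over 65% in size; a mitochondrial uncoupler was the plate control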
#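 A stable cell line was treated with compounds at 5 concentrations for 24 hours, with CCCP as control. PINK1 levels and mitochondrial localization were measured by immunofluorescence with mitochondrial, cell and nuclear markers after fixation, read by laser-scanning cytometry.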
# D2 potentiator: potentiates the human D2 dopamine receptor allosterically; DiscoveRx D2 beta-arrestin cells, luminescence, 90 min; 100% = 57 uM dopamine signal; AID 624464; potentiation, % (concentration not given with the values); P14416; hit rate 0.23% among 360,000; active = potentiation of 50% or more; inconclusive = 30% to 50%; inactive = 30% or less;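 note: compound concentration not given in the record; tested on top of an EC20 dose of dopamine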
# Target sequence (P14416 whole entry, looked up): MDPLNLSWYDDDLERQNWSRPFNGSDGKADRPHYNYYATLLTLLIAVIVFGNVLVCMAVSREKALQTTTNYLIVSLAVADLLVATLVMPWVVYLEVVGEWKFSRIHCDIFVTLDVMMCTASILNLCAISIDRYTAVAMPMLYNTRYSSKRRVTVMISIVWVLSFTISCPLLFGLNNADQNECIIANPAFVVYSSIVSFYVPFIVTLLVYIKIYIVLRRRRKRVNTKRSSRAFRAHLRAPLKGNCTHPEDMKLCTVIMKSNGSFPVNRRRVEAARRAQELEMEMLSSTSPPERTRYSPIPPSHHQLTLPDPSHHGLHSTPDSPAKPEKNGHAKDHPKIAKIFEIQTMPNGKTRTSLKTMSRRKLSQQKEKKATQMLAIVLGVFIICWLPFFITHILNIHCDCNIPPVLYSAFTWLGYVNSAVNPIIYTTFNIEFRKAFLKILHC
#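 D2 cells co-treated with compound plus 50 nM dopamine (EC20) for 90 min at 37 deg C to detect potentiation. Beta-arrestin recruitment was read as enzyme-fragment luminescence after 1 h at ambient temperature. Full response was set by 57 uM dopamine.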
# CtBP-E1A blk: inhibitors of CtBP/E1A interaction; activity change, % (no concentration beside the values); AlphaScreen GST-E1A/His-CtBP binding, 1536-well; stronger effect = lower value; control for the full effect not named in the record; hit rate 0.49% among 340,000; in the data active means activity change below about -65%; inconclusive means about -30% to -65%; inactive means above about -30%; note: % is set by controls: 0 for no effect and ±100 for the full control effect; compound concentration not given in the record
#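 AlphaScreen with 125 nM GST-E1A and 125 nM His-CtBP (5X stocks) in Tris pH 8.0, 300 mM NaCl, BSA, Tween 20, TCEP. Compounds preincubated 2 h at 37 deg C, then glutathione donor/nickel acceptor beads added for 1 h at 37 deg C in dark.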
# TRPV1 potentiator: enhances activation of the human vanilloid receptor TRPV1; potentiation, % at 8.33 µM; hit rate 0.02% among 320,000; TRPV1-expressing cells, Fluo-8 calcium influx, capsaicin EC20 potentiation; host cell line not named in the record; control for the full effect not named in the record; Q8NER1; active means potentiation above 80%; inconclusive means 30% to 80%; inactive means below 30%; note: 0% is about no effect
#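 Fluo-8 calcium influx in TRPV1-expressing cells, kinetic read (ex 480/em 520 nm). Compound added and read 3 min for agonist activity, followed by capsaicin at EC20 final and 2 min further read for enhancement.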
# D2 agonist: activates the human D2 dopamine receptor | AID 624465 | DiscoveRx PathHunter D2 beta-arrestin, luminescence, 90 min; 100% = 57 uM dopamine signal | activation, % (test concentration not listed) | P14416 | hit rate 0.084% among 360,000; in the data active = activation above about 40%; inconclusive = about 15% to 40%; inactive = below about 15%; note: compound concentration not given in the record; the text of the record calls up to 30% inactive
#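 Agonist mode: compounds alone added to overnight-plated D2 PathHunter cells for 90 min at 37 C, with 57 uM final dopamine (EC100) defining full response. Beta-arrestin recruitment detected by chemiluminescent reagent, read after 1 h at ambient temperature.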
# The depositor's hits bear a star; ? = inconclusive; / = not tested or not shown; & = joins results of further samples; [ ] = another dose, or the depositor's remark.
SMILES,Sfp inh,Six1-Eya2 blk,PINK1 expr mod,D2 potentiator,CtBP-E1A blk,TRPV1 potentiator,D2 agonist
CC1(C(=O)NC2CCCCC2)CCC(=O)N1Cc1cccs1 (stereo unspecified),14%,1,1.2%,2,2,1,5.8
O=C1NC(=O)/C(=C\c2ccc(Oc3cnccn3)cc2)S1,8%,2,0.3%,-6,1,0,-1.6
Brc1ccc(OCc2nnnn2-c2ccccc2)cc1,-15%,1,2.7%,6,17,-19,7.1
COc1ccc(OC)c(NC(=O)CN2CCc3ccccc3C2)c1,-8%,-15,1.4%,-9,-11,-14,-4.4
O=C(Cn1nc2sc3ccccc3n2c(=O)c1=O)c1cccs1,11%,7,0.3%,-18,/,30,-4.7
C=CCN1c2ccccc2[C@]23C[C@@H](C(=O)OC)N(C(=O)c4ccco4)C2=NC(C(=O)OC)=C(C(=O)OC)[C@H]13,4%&9%,-4,6.0%,-4,3,-7,0.3
CCOC(=O)N1CCN(C(=O)C(CC)c2ccccc2)CC1 (stereo unspecified),12%,6,2.1%,-3,-7,1,1.4
O=C1c2ccccc2C(=O)N1CC(O)COc1cccc2ccccc12 (stereo unspecified),/,1,0.0%,-3,0,/,-4.8
CCOC(=O)C1=C(C)N(CCO)C(=O)NC1c1cccc(O)c1 (stereo unspecified),6%,-5,-2.5%,-10,-1,-2,0.9
Cc1cc(N2CCN(c3ccccc3)CC2)n2ncnc2n1,-5%,-2,1.1%,-2,-3,4,-1.9
O=C(N/N=C/c1ccccc1[N+](=O)[O-])c1cccs1,8%,-6,0.2%,-2,-5,4,1.6
COc1ccc(C(CNC(=O)c2cc(=O)[nH]c3ccccc23)N2CCCC2)cc1 (stereo unspecified),18%,0,-1.4%,1,2,1,-6.5
O=c1nc2n(c3cccc(Cl)c13)CCCCC2,-4%,1,0.3%,-17,-15,12,2.4
CCCCNC(=O)Cc1coc2ccc3ccccc3c12,5%,8,4.2%,-4,-7,3,0.1
CCn1c(NC(=O)/C=C/c2ccc(F)cc2)nc2ccccc21,13%,-2,1.8%,-11,-3,-2,1.4
CCCCCOc1ccc(C(=O)CCC(=O)N2CCCC2)cc1,4%,12,5.9%,-2,0,-7,-11
Cc1ccc(-c2nc(CS(=O)(=O)CC(=O)Nc3cc(F)ccc3F)c(C)o2)cc1,-5%,-6,1.1%,-4,2,16,-6.2
CCOC(=O)/C(=C/C1=CC(=C/N(C)C)/C(=O)O1)C(C)=O,5%,4,-0.1%,-6,1,7,-4.3
CCC1Cc2[nH][nH]c(=O)c2C(CC)O1 (stereo unspecified),/,-4,0.4%,/,1,/,/
CCS(=O)(=O)c1ccc(O)c(NC(=O)CC2(CC(=O)O)CCCC2)c1,11%,3,-0.3%,-2,6,21,-4.9
O=C(CN1CCN(Cc2ccccc2Cl)C1=O)NCC1CCCO1 (stereo unspecified),20%,7,-0.1%,-7,-4,/,-5.6
Cc1c(CCC(=O)O)c(=O)oc2cc3occ(C(C)(C)C)c3cc12,11%,16,-3.0%,-1,-4,-3,1.2
COC(=O)c1cc(NC(=O)c2cccc(F)c2)cc(C(=O)OC)c1,20%,1,0.6%,-4,0,0,3.5
CC(=O)N1c2ccc(S(=O)(=O)NCCC(=O)NC3CCCCCC3)cc2CC1C (stereo unspecified),12%,3,-0.6%,-5,4,-4,0.5
Cc1cc(NC(=O)CCc2ccc(S(=O)(=O)N3CCOCC3)cc2)n(-c2ccccc2)n1,9%,5,20%,14,-2,-1,3.7

# The results go on.
SMILES,Sfp inh,Six1-Eya2 blk,PINK1 expr mod,D2 potentiator,CtBP-E1A blk,TRPV1 potentiator,D2 agonist
Cc1cc(-c2ccc(S(=O)(=O)N(C)c3ccc(C)c(C)c3)s2)on1,4%,15,7.8%,-8,/,15,0.2
O=[N+]([O-])c1cccc(-c2nc3ccc([N+](=O)[O-])cc3[nH]2)c1,9%,0,3.3%,-2,/,1,4.8
COc1cccc(OCCCOc2ccc([N+](=O)[O-])cc2Cl)c1,-10%,13,-0.9%,-14,20,6,-5.5
CC1CCC(C(C)C)C(OCC(O)CN2CCCC(C)C2)C1 (stereo unspecified),21%,-3,2.1%,-7,-13,4,-2.0
CCOc1ccc(NC(=O)N(C2CCCCC2)C(C)c2cccnc2)cc1 (stereo unspecified),0%,22,-0.3%,-10,5,13,0.6
CCCCN(C)C(=O)Cn1ncc2c3ccccc3n(CCC)c2c1=O,0%,-13,2.6%,-8,-6,5,-0.7
CCOc1cccc(-c2c(C(=O)N/N=C/c3ccc(C)s3)nnn2-c2nonc2N)c1,18%,2,-0.2%,-6,19,-1,-6.4
COCCNC(=O)CSc1ccc(-c2nc3ccccc3[nH]2)cn1,19%,-3,2.2%,1,4,13,4.3
O=C(CN1CCCC1c1cccs1)Nc1cccc(S(=O)(=O)N2CCCC2)c1 (stereo unspecified),/,-5,-1.3%,2,-2,-25,-1.0
CC(=O)NC(CCS(C)(=O)=O)C(=O)Nc1ccccc1Cl (stereo unspecified),15%,0,-2.0%,-1,-1,-8,-2.2
Nn1c(SCC(=O)Nc2ccccc2F)nc2ccccc2c1=O,?,3,2.1%[38.3 µM],11,0,7,3.1
Cc1cccc(C(=O)NCC(=O)OCC(=O)NC2CCCCC2)c1,/,3,-1.2%,2,5,/,2.6
Cc1cc([N+](=O)[O-])nn1Cc1c(F)c(F)c(F)c(F)c1F,-2%,5,-1.4%[38.3 µM],5,8,-7,0.1
COc1ccc(NC(=O)CN(C)C(=O)C2CC(=O)N(CCc3ccc(OC)c(OC)c3)C2)cc1 (stereo unspecified),/,-8,3.7%,-4,5,/,-2.4
Cc1ccccc1C(=O)N[C@H](C(=O)OCC(=O)c1ccc[nH]1)C(C)C,9%,-1,-0.2%,3,/,15,-4.5
O=C(O)C1CC=CCC1C(=O)NCCc1csc(-c2ccccc2)n1 (stereo unspecified),7%,13,-0.2%,-3,-2,-1,-6.4
COC(=O)C1=CN(Cc2ccc(OC)c(OC)c2)C=C(C(=O)OC)C1c1cccc(O)c1,-4%,15,-3.3%,4,16,5,2.3
COc1ccc2c(c1)c(CC(=O)OC(C)C(=O)N(C)C)c(C)n2C(=O)c1ccc(Cl)cc1 (stereo unspecified),12%,-10,0.0%,2,-1,-5,5.8
CCCN1C(=O)CC(c2ccco2)Sc2ccccc21 (stereo unspecified),35µM*,-5,5.4%[38.3 µM],1,-7,-18,-2.0
COc1cc(OC)c2c(OC)cccc2n1,-6%,8,3.8%,-4,-2,0,-3.7
O=C(Nc1ncc(Cl)cn1)c1cccs1,2%,-2,2.5%,-19,0,9,-3.2
COc1ccc(NC(=O)c2oc3ccccc3c2NC(=O)C(C)(C)C)cc1,-6%,1,2.6%[38.3 µM],-5,0,-12,2.3
COc1ccc(C(=O)N/N=C/c2ccc(OC)c(COc3ccc(F)cc3F)c2)cc1,9%,-1,0.6%,-6,-15,4,2.3
COc1ccnc(N=CNOCc2ccc(Cl)cc2)c1C#N,21%,2,7.2%,3,7,2,-2.1
CC(COC(=O)c1ccccc1)(COC(=O)c1ccccc1)/[N+]([O-])=C/c1ccccc1,12%,-8,-1.8%,-5,-15,-9,-3.3

# Some of these compounds in order of molar mass, lowest first.
SMILES,Sfp inh,Six1-Eya2 blk,PINK1 expr mod,D2 potentiator,CtBP-E1A blk,TRPV1 potentiator,D2 agonist
CCCN1C(=O)CC(c2ccco2)Sc2ccccc21 (stereo unspecified),35µM*,-5,5.4%[38.3 µM],1,-7,-18,-2.0
CCCCN(C)C(=O)Cn1ncc2c3ccccc3n(CCC)c2c1=O,0%,-13,2.6%,-8,-6,5,-0.7
COC(=O)C1=CN(Cc2ccc(OC)c(OC)c2)C=C(C(=O)OC)C1c1cccc(O)c1,-4%,15,-3.3%,4,16,5,2.3

# (more compounds)
SMILES,Sfp inh,Six1-Eya2 blk,PINK1 expr mod,D2 potentiator,CtBP-E1A blk,TRPV1 potentiator,D2 agonist
CCc1ccc(/C=C/C(=O)c2c(C)cc(C)[nH]c2=O)cc1,8%,-1,-2.6%,-9,0,1,-4.5
Cc1ccccc1-n1nc(C(=O)O)cc1-c1ccccc1,-16%,9,-2.2%[38.3 µM],-11,6,-4,-1.5
COC(=O)C1=CN(Cc2ccc(F)cc2)C=C(C(=O)OC)C1c1ccc(O)c(OC)c1,-10%,-7,2.6%,-7,/,?,3.4
Cc1cc(OCC(C)C)ccc1/C(O)=C1/C(=O)C(=O)N(Cc2cccnc2)C1c1ccncc1 (stereo unspecified),3%,-3,2.9%,-13,5,0,0.0
CCOC(=O)[C@]12CCC=C1N(CCC1=CCCCC1)C(=O)[C@H](CC(=O)N1CCCCC1)C2,/,-1,-0.2%,/,0,/,/
NC(=O)CC(NC(=O)c1ccccc1)c1ccc(N2CCN(c3ccc(F)cc3)CC2)c([N+](=O)[O-])c1 (stereo unspecified),0%,1,-0.3%,-11,-22,-5,0.3
O=C(Oc1ccccc1)c1ccc2nccnc2c1,7%,0,-3.7%[38.3 µM],7,2,5,2.2
O=C1NC(=O)/C(=C\c2ccc(O)cc2O)S1,?,?,1.2%,14,/,6,-3.4
COc1ccc(Cl)cc1NC(=O)CCCC(=O)c1ccccc1,9%,13,0.8%,-25,20,?,-0.3
COc1cc(C(=O)NCc2nnc(SCC(=O)NC3CCCC3)o2)cc(OC)c1OC,7%,7,-1.0%,-6,-8,10,4.4
CCn1c(COc2cccc(C)c2)nnc1SCC(=O)Nc1cccc(C(=O)O)c1,-6%,12,-2.4%,-4,-8,-26,-1.8
COc1ccc(/C=C/c2cc(=O)c3cc(Cl)ccc3o2)cc1,50µM*,12,4.3%,-3,-7,2,-5.3
Cc1ccc2c(c1)C(=O)C(=O)N2Cc1ccc(C(F)(F)F)cc1,/,-4,-0.7%,-92,4,/,-6.9
O=C1/C(=C/N(C(=O)c2ccco2)c2ccc(Br)cc2)Sc2ccccc21,-4%,-12,17%,-14,-6,-15,2.4
Cc1cc(C(=O)CCl)c(C)n1CCc1ccc(F)cc1,-4%,0,-0.7%,-28,10,-22,-3.4
CC(C)CC(C(=O)O)N1C(=O)C2C3c4ccccc4C(c4ccccc43)[C@@H]2C1=O (stereo partly specified),16%,-5,-3.1%,-10,-11,10,1.2

# Reprinted at random: 2 compounds from above.
SMILES,Sfp inh,Six1-Eya2 blk,PINK1 expr mod,D2 potentiator,CtBP-E1A blk,TRPV1 potentiator,D2 agonist
CC(C)CC(C(=O)O)N1C(=O)C2C3c4ccccc4C(c4ccccc43)[C@@H]2C1=O (stereo partly specified),16%,-5,-3.1%,-10,-11,10,1.2
CCn1c(COc2cccc(C)c2)nnc1SCC(=O)Nc1cccc(C(=O)O)c1,-6%,12,-2.4%,-4,-8,-26,-1.8

# Assay outcomes (PubChem)
